FGF22 binding: binders of human FGF22 protein, primary screen, FGF22 synaptogenesis inhibitor project, biophysical, thermal shift, single point | Fibroblast growth factor 22 (Homo sapiens), Q9HCT0 | calls only at 9.99 µM | 340,000 tested, 1.5% active | recombinant FGF22 thermal shift, SYPRO orange fluorescence; percent of sucrose octasulfate shift, DMSO zero;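 active = melting point raised past a set limit in the mean and every replicate; three in four hits are not shown here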
Target sequence (Q9HCT0 whole entry, looked up): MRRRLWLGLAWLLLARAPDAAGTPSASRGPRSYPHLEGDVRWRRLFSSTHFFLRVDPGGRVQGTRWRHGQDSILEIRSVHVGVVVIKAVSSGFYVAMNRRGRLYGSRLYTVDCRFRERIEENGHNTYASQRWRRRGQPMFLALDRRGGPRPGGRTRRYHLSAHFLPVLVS
E coli growth: E. coli growth inhibition, primary screen, OD600; Escherichia coli growth, 23 h; stronger effect = lower value; OD600 absorbance (concentration not given with the values); 330,000 tested, 0.21% active; AID 1053175, 2014;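 active = OD600 absorbance below the run mean of sample wells minus 3.6 SD, in any replicate, cut at about 0.56 in these data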;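 note: stock transfer was 300 nL into about 60 µL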
Beta apoptosis: inhibitors of cytokine-induced beta cell apoptosis, primary screen, luminescence | 300,000 tested, 0.8% active | AID 435005, 2010 | INS-1E cytokine-induced death, ATP luminescence, 48 h; percent of positive-control rescue, neutral wells zero | protection from apoptosis, % (test concentration not listed);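 active = all replicates at 75% or more, or half of them and the mean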;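 note: 0% = cytokine-treated negative control wells and 100% = positive control rescue; higher means more ATP so stronger rescue from cytokine killing; wells of about 40 µL received 100 nL stock; the first replicate is given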
UCH37 DUB inh: inhibitors of human UCH37 deubiquitinase, primary screen, biochemical, Ub-AMC cleavage, fluorescence. Ubiquitin carboxyl-terminal hydrolase isozyme L5 (Homo sapiens), Q9Y5K5. purified proteasome/UCH37. inhibition, % (test concentration not listed). 330,000 tested, 0.33% active;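 active = mean of two replicates above 20%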;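 note: 0% = compound-free wells with enzyme and 100% = wells lacking proteasome; stock transfer was 100 nL into about 20 µL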
Target sequence (Q9Y5K5 whole entry, looked up): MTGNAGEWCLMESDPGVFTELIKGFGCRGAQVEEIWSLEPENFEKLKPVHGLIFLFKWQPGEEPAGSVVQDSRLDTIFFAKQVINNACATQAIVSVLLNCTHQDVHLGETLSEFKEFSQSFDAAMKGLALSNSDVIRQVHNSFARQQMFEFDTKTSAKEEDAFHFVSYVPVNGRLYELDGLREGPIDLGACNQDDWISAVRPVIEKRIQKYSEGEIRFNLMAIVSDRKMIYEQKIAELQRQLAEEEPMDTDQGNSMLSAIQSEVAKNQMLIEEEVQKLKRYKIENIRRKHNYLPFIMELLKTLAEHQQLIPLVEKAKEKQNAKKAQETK
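Material: human UCH37 enzyme supplied as purified proteasome complex / Amount: 0.15 nM proteasome as dispensed / Buffer or medium: pH 7.4 Tris-HCl (50 mM) with ovalbumin, ATP-MgCl2, DTT / Times: preincubation 30 min, reaction 25 min, room temperature / Technique: AMC fluorescence from Ub-AMC cleavage, excitation 355 nm, emission 460 nm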
T cruzi repl: inhibitors of intracellular T. cruzi growth, primary screen, luminescence, NIH3T3 host cells; AID 1885, 2009; inhibition, % (no concentration beside the values); 300,000 tested, 1.4% active; T. cruzi beta-gal in NIH3T3, 90 h;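 active = mean inhibition across valid replicates above about 55%, limit read from the data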;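 note: signal also drops with host cell toxicity which is not excluded here; 0% = plate median of DMSO wells and 100% = zero luminescence signal; higher percent means less beta-gal luminescence so fewer parasites; stock transfer was 50 nL into about 50 µL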
AF4-AF9 inh: inhibitors of AF4 peptide binding to AF9, primary screen, biochemical, AlphaScreen, biotin-AF4 peptide, FLAG-AF9, single point. Protein AF-9 (Homo sapiens), P42568. inhibition, % at 10 µM. 350,000 tested, 0.47% active. AID 651704, 2012;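 active = every replicate reaching a set inhibition limit, whatever the replicate mean, cut at about 25% in these data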;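 note: 0% = plate neutral control median and 100% = total signal loss; the record names both 10 and 1 µM as test concentration; the first replicate is given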
Target sequence (P42568 whole entry, looked up): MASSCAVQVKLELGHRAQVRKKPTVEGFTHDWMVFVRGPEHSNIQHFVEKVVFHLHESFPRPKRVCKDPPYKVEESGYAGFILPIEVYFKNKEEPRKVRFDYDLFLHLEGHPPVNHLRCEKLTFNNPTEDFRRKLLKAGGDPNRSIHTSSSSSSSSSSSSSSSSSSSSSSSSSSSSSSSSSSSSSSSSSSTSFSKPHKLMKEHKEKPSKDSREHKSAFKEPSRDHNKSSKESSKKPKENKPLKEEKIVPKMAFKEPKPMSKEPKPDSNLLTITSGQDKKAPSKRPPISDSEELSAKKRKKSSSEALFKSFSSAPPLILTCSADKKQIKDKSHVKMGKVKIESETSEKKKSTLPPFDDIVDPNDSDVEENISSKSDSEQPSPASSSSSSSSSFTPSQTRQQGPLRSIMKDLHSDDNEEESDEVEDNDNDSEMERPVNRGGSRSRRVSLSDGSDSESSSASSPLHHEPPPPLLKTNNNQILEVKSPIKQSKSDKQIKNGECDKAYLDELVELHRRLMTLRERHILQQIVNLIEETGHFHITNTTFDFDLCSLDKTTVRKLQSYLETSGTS
A1 inh: caspase 3/7 activation in MEF A1-2A-BIM cells, primary screen, A1 inhibitor project, cell-based, luminescence, HTS. Caspase-Glo 3/7 luminescence, 3 h; percent of clofoctol response, vehicle zero. caspase activation, % (concentration not given with the values). 330,000 tested, 0.066% active. AID 2462, 2010;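 active = over half of replicate activation scores above 10%, or exactly half above 10 with the replicate mean above 10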;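 note: wells of about 30 µL received 50 nL stock; many hits fall short of the cut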
Ecoli rRNA inh: reduced GFP signal of wild-type E. coli, primary screen, bacterial rRNA inhibitor project, GFP/RFP fluorescence, OD600, single point; E. coli WT GFP vs humanized-ribosome RFP mutants, 24 h; stronger effect = lower value; DMSO median 0, no signal -100; GFP signal change (wild-type ribosome), % (concentration not given with the values); 350,000 tested, 1.6% active;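 active = significant combined selectivity score with lowered wild-type GFP, culture density cut under 30%, mutant RFP and density less affected; inactive = any of these conditions unmet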; note: one replicate is shown; some compounds called inactive have numbers as strong as hits
Ecoli rRNA inh OD600: also measured in Ecoli rRNA inh; calls as there; OD600 change, %; measured here: OD600 growth;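 optical density of the mix in the first replicate; 0 = DMSO median and -100 = no signal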
Ecoli rRNA inh RFP: recorded beside Ecoli rRNA inh, whose call it bears; RFP signal change, %; measured here: RFP humanized mutant strains;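 first replicate; 0 = DMSO median and -100 = no signal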
* = called active by the depositor; i = inactive; nt = not tested or not shown; + = active, no number.

SMILES	FGF22 binding	E coli growth	Beta apoptosis	UCH37 DUB inh	T cruzi repl	AF4-AF9 inh	A1 inh	Ecoli rRNA inh	Ecoli rRNA inh OD600	Ecoli rRNA inh RFP
Cc1cc(C)nc(N2CCC(C(=O)Nc3ccc4c(c3)CCC4)CC2)n1	nt	0.705	-0.8	1.3	-4.1	nt	0.2	nt	nt	nt
COc1cccc(CN2CCC(N(CCc3ccccc3)Cc3ccccc3)CC2)c1OC	nt	0.693	113.3*	4.9	25.3	nt	0.2	nt	nt	nt
Fc1ccc(CNc2ccccn2)cc1	i	0.638	-8.3	2.6	-1.1	-0.2	-0.9	1.8	0.6	-1.3
O=C1OCCN1C(=O)[C@H]1[C@H](c2ccccc2)C(c2ccc(F)cc2)=NN1c1ccccc1	i	0.722	nt	-67.6	nt	-5.1	nt	30.1	8.5	2.2
C=CCn1c(SCC(=O)Nc2ccc(F)cc2F)nnc1-c1cnccn1	i	0.663	-2.7	2.1	-2.0	-4.6	0.5	-4.7	-5.4	0.4
CCOC(=O)CN1CCC(c2ccccc2)CC1	i	0.67	-8.8	-1.6	15.8	0.2	1.0	9.3	6.3	2.2
COc1ccc(C(=O)NN=C2CCCC2)cc1OC	i	0.687	-1.9	1.8	-3.4	-0.7	0.8	4.9	8.8	0.4
COc1ccc(NC(=O)N2CCCC2C(=O)Nc2ccc(C)c(Cl)c2)cc1 (centres undefined)	nt	0.719	-3.4	2.9	-1.4	nt	1.7	nt	nt	nt
COCCNC(=O)C(c1ccc(OC)cc1)N(Cc1ccco1)C(=O)CCC(=O)Nc1ccccn1 (centres undefined)	i	0.672	-3.1	-1.1	-16.7	-1.5	-0.5	2.0	6.6	1.7
Cc1cc(NC(=O)Nc2cccc(C(F)(F)F)c2)n(C)n1	i	0.634	-0.7	4.9	-24.3	-0.5	0.0	0.1	-1.3	1.5
O=c1[nH]c(=O)n(C2CCCO2)cc1F (centres undefined)	i	0.687	-2.0	-0.6	-6.2	-1.9	-0.1	nt	nt	nt
CC1(c2ccccc2)NC(=O)N(CC(=O)Nc2ccc(C(N)=O)cc2)C1=O (centres undefined)	i	0.708	0.4	2.3	-19.5	2.0	0.4	4.0	8.6	-0.4
Cc1sc2nc(CSc3cccc(C(F)(F)F)c3)[nH]c(=O)c2c1C	i	nt	-4.0	nt	8.4	-9.8	0.1	17.1	11.4	-0.8
O=C(OCn1nnc2ccccc2c1=O)c1ccc(N2CCOCC2)c([N+](=O)[O-])c1	nt	0.637	-4.3	4.1	-9.8	nt	-0.3	nt	nt	nt
CN(CC(=O)Nc1ccc(F)c(F)c1F)C(=O)c1cc(-c2ccncc2)nc2ccccc12	i	0.702	3.0	4.0	33.8	2.2	0.8	-7.5	-9.1	4.8
Cc1cccc(OCc2nc(-c3nonc3N)no2)c1C	nt	0.703	-1.1	3.7	21.2	nt	-1.5	nt	nt	nt
O=C(O)CC1S/C(=N/N=C/c2ccc(Br)cc2)N(c2ccccc2)C1=O (centres undefined)	i	nt	nt	nt	-1.8	-0.4	nt	-17.1	-15.2	-2.3
CCOc1ccc(OCCOC(=O)CN2C(=O)NC3(CCCC3)C2=O)cc1	i	0.639	nt	4.0	-7.4	-7.3	0.9	-1.4	-1.3	-3.4
Cc1ccc(NCc2nnc(SCC(=O)NNC(=O)Cc3ccccc3)n2C)cc1	i	0.684	0.3	5.2	-7.9	4.0	-0.3	-23.1	-2.8	12.1
Cc1nnc(NC(=O)CSc2nnc(CNC(=O)C34CC5CC(CC(C5)C3)C4)n2C2CCCCC2)s1	i	0.701	-5.1	1.4	2.1	1.2	-1.1	2.1	17.2	8.2

Looked up by structure from the list above (two):
SMILES	FGF22 binding	E coli growth	Beta apoptosis	UCH37 DUB inh	T cruzi repl	AF4-AF9 inh	A1 inh	Ecoli rRNA inh	Ecoli rRNA inh OD600	Ecoli rRNA inh RFP
Fc1ccc(CNc2ccccn2)cc1	i	0.638	-8.3	2.6	-1.1	-0.2	-0.9	1.8	0.6	-1.3
Cc1cc(NC(=O)Nc2cccc(C(F)(F)F)c2)n(C)n1	i	0.634	-0.7	4.9	-24.3	-0.5	0.0	0.1	-1.3	1.5

Following part
SMILES	FGF22 binding	E coli growth	Beta apoptosis	UCH37 DUB inh	T cruzi repl	AF4-AF9 inh	A1 inh	Ecoli rRNA inh	Ecoli rRNA inh OD600	Ecoli rRNA inh RFP
COc1ccccc1CNC(=O)CNCCc1ccc(OC)c(OC)c1	i	0.676	nt	3.4	39.8	4.1	0.9	-0.2	-9.2	0.6
Cc1ccc2c(c1)C1CN(C)CCC1N2S(=O)(=O)c1cccc(F)c1 (centres undefined)	i	0.664	0.4	-0.2	nt	4.0	0.2	3.5	2.4	2.9
CCC(CC)C(=O)Nc1cc(OC)c(OC)cc1C(=O)O	nt	0.686	1.2	4.7	-7.1	nt	0.4	nt	nt	nt
COc1cc(NS(C)(=O)=O)c(OC)cc1NC(=O)c1cccc(F)c1	i	0.625	0.8	2.4	-1.1	-1.0	-0.5	-0.8	2.7	13.0
CC1(C)Cc2c(c(N3CCCC3)nc3sc(C(=O)Nc4ccccc4)c(N)c23)CO1	i	0.67	1.3	-407.4	35.1	-2.8	-2.3	-9.9	-8.3	-3.1
CC1Cc2cc(S(=O)(=O)N3CCCCC3)ccc2N1C(=O)C1CCC1 (centres undefined)	i	0.709	11.0	4.6	0.3	-9.6	0.1	-3.1	-4.5	1.8
Cc1c(C#N)c(NC(=O)CCl)n(Cc2cccs2)c1C	i	0.717	6.2	6.6	61.0*	5.3	1.1	12.7	7.4	7.8
O=C(COC(=O)CCc1nc2ccccc2c(=O)[nH]1)Nc1c(Cl)cccc1C(F)(F)F	i	0.675	-18.9	-1.7	-6.7	-0.4	1.5	13.6	11.2	1.9
CN(C)c1ccc(C(=S)N2CCN(Cc3ccccc3)CC2)cc1	i	0.638	-1.2	7.7	4.9	-3.1	-0.1	-9.3	-11.2	-4.5
CCc1ccc(CN(C)C(=O)CC2C(=O)NCCN2Cc2ccoc2)cc1 (centres undefined)	i	0.685	-1.6	0.2	-5.4	-1.4	0.1	6.4	4.5	4.4
COc1cccc(CNc2nc3ccccc3n2CCN2CCCCC2)c1OC	nt	0.731	6.6	6.2	nt	nt	-0.3	nt	nt	nt
NC(=O)c1ccccc1OCC(=O)Nc1cccnc1Cl	i	0.663	7.2	0.1	nt	-1.8	-1.8	-2.5	2.3	-1.5
CC(=O)N1c2ccccc2CCc2ccc(N)cc21	i	0.629	4.2	-0.5	15.2	2.9	0.7	9.6	-2.6	-0.3
O=C(Nc1ccccc1)/C(=C/c1cccnc1)NC(=O)c1ccco1	nt	0.693	-5.9	3.1	-1.9	nt	0.7	nt	nt	nt
COc1ccc(NC(=O)Nc2ccccc2C(N)=O)cc1OC	nt	0.743	-0.9	2.5	2.5	nt	-1.2	nt	nt	nt
O=C(Nc1ccc2snnc2c1)N1CCN(c2ccccc2)CC1	nt	0.677	2.0	1.5	-0.1	nt	-1.2	nt	nt	nt
Cn1cccc1/C=N\NC(=O)c1cncc(Br)c1	i	nt	-4.5	nt	-6.0	3.8	0.0	nt	nt	nt
CCCCCCCCN1[C@@H](CC(=O)OCC)c2cc(C(F)(F)F)ccc2S1(=O)=O	i	nt	-0.8	-1.6	22.7	-10.3	-1.0	-24.4	-37.9	31.4
CC(OC(=O)C1=Cc2ccccc2OC1)C(=O)NC(C)(C)C (centres undefined)	i	0.711	-3.7	-6.1	8.8	-1.1	0.1	-1.5	2.5	0.2
NC(=NCCc1ccc(Cl)cc1)NS(=O)(=O)c1ccccc1	i	0.692	-4.5	4.6	0.9	-1.4	2.6	-12.4	-23.2	-2.3
COc1ccc(NC(=O)CN2CCC(C)CC2)c([N+](=O)[O-])c1	i	0.655	-0.1	6.4	15.1	14.7	-1.1	-4.6	-5.3	-3.2
O=[N+]([O-])c1cc(CS(=O)(=O)Oc2ccc(Cl)cc2)c(O)c([N+](=O)[O-])c1	+	0.665	nt	9.9	16.7	-3.5	-0.1	0.7	2.5	1.3
Fc1ccccc1N1CCN(Cc2cnc(Cl)s2)CC1	i	0.644	1.6	-1.2	3.5	-1.2	0.0	8.6	4.4	-0.5
Cc1cccc(NC2=CC(=O)OC(C)C2)c1 (centres undefined)	nt	0.77	-1.9	-1.3	-2.3	nt	0.7	nt	nt	nt
C=C(C)COc1ccc(-c2[nH]ncc2-c2ccc(Br)cc2)c(O)c1	nt	0.662	6.8	0.2	2.7	nt	0.4	nt	nt	nt
Cc1nn(C)cc1S(=O)(=O)Nc1ccc(C(F)(F)F)cc1	i	0.68	1.7	-0.2	-15.7	-0.8	0.2	5.1	4.4	-1.8
COc1ccc(C)cc1NC(=S)NC(C)c1ccc(OC)c(OC)c1 (centres undefined)	i	0.659	-4.6	1.6	-7.4	13.4	-0.2	-31.2	-30.6	-2.9
Cc1ccc2nc3c(cc(S(=O)(=O)c4ccccc4)c(=N)n3Cc3ccco3)c(=O)n2c1	i	0.717	-6.5	-36.2	63.4*	-2.6	-0.2	-21.1*	16.7*	8.7*
CCCCN(C(=O)CN(C)CC(=O)Nc1cccc(OC)c1)c1c(N)n(CCCC)c(=O)[nH]c1=O	i	0.693	-3.2	0.2	nt	0.9	1.2	2.3	13.3	-1.0
Cc1ccc(S(=O)(=O)CC(=O)N2CCN(c3cccc(C(F)(F)F)c3)CC2)cc1	i	0.712	-2.8	7.2	8.4	-1.0	-0.4	-18.0	-23.9	-6.2
Cc1ccc(NC(=O)c2cccc(F)c2)cc1S(=O)(=O)N1CCCCCC1	nt	0.693	-5.5	5.7	49.6	1.9	-0.1	-2.1	4.8	4.8
Cc1nn(CC(=O)NNC(=O)c2cccc(Br)c2)c(C)c1[N+](=O)[O-]	i	0.634	nt	4.3	-16.4	-2.2	1.2	1.8	9.4	6.2
Cc1cc(C(=O)OCC(=O)NCc2ccco2)c(C)n1-c1ccccc1	nt	0.753	1.5	6.1	-50.9	nt	0.3	nt	nt	nt
COCCN(C(=O)COC(=O)/C=C/c1cccs1)c1c(N)n(Cc2ccccc2)c(=O)[nH]c1=O	i	0.607	-0.2	3.2	0.9	4.2	-0.3	10.0	11.9	4.0
CC(C)NCC(=O)Nc1c2c(nc3ccccc13)CCC2	i	0.659	-3.7	-0.1	-18.1	-5.1	2.8	-0.1	4.5	-0.4
C=CCC[C@@H](Cc1ccc(F)cc1)C(=O)OC[C@@H](Cc1c[nH]c2ccccc12)NC(=O)[C@H](CC=C)CC(=O)N(CCO)Cc1ccccc1	i	nt	-5.0	2.2	nt	-4.4	1.5	6.0	3.5	-6.2

Bioassay records as filed in PubChem.

An excerpt; rates above refer to the full screens.
